KCNQ2 inh: KCNQ2 channel blockers in CHO-K1 cells – cell-based, FluxOR thallium flux, B-score, primary screen (AID 2156) | 20 min; hits give low values; only compounds with negative scores are shown here; some inactives read as strong as hits | O88943 | 310,000 tested, 1.1% active | B-score at 10 µM;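 active = fluorescence ratio B-score at most minus 3 library SDs, with starting brightness B-score within 2 library SDs, cut at about -5.5 in these data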
Target sequence (O88943 whole entry, looked up): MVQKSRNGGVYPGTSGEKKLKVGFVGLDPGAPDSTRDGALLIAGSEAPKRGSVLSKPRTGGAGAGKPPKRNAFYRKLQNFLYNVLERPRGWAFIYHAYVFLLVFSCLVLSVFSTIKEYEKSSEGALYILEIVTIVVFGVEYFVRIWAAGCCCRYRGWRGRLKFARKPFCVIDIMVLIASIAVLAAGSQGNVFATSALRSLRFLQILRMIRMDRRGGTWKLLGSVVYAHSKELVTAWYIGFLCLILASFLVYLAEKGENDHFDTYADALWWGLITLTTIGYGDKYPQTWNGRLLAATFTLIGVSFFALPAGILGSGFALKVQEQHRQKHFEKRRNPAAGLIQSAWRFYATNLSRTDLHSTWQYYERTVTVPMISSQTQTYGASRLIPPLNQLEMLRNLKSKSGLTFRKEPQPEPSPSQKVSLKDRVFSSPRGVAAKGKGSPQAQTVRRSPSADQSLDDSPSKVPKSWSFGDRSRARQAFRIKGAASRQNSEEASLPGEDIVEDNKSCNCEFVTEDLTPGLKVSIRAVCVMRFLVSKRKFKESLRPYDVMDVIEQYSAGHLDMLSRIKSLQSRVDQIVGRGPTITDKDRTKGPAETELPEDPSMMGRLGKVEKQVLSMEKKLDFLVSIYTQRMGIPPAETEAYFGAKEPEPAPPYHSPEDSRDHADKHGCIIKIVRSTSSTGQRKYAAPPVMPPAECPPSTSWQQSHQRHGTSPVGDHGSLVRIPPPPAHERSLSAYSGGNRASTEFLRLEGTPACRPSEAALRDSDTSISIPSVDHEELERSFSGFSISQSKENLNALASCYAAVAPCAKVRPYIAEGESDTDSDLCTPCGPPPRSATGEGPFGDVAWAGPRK
KCNQ2 inh baseline: also measured in KCNQ2 inh; calls as there; B-score; measured here: initial fluorescence intensity artifact check;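 brightness before thallium and not channel activity; 0 = typical well and far values either way flag optical interference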
* hit, by the source's call; i = inactive. The list is partial; rates above refer to the full screens.

SMILES	KCNQ2 inh	KCNQ2 inh baseline
Cc1cc(C)n2nc(NCc3cccc(Br)c3)nc2n1	-6.7*	0.17*
N#C/C(C(=O)NCc1ccco1)=C1/SC(Cc2ccc(Cl)cc2)C(=O)N1c1ccccc1 (stereo not drawn)	i	-0.82
CCOC(=O)c1sc(=NC(=O)c2cccs2)n(C)c1C	i	-0.93
CC(C)(C)c1cc(Cl)c(O)c(NC(=S)NC(=O)c2cccnc2)c1	i	0.78
CCn1c(O)c(N=NC(=O)CNc2cccc(C)c2)c2ccccc21	i	0.86
CCOCCCn1c(=S)[nH]c2cc(C(=O)NCCN(CC)CC)ccc2c1=O	i	0.52
COc1cc(C)c(Cl)cc1S(=O)(=O)NCc1ccncc1	i	1.2
Cc1ccc(C(=O)N(CCN(C)C)CC2CCCN(Cc3ccccc3F)C2)cc1C (stereo not drawn)	i	2.1
CCOC(=O)O[C@]1(C(=O)OCCl)CC[C@H]2[C@@H]3CCC4=CC(=O)C=C[C@]4(C)[C@H]3[C@@H](O)C[C@@]21C	i	1.8
Cc1nnc(SCC(=O)N2CCN(C(=O)c3ccco3)CC2)n1-c1ccccc1	i	0.12
O=C(Cc1ccc(F)cc1)Nc1cccc2cccnc12	i	-0.05
CC(C)Cc1cc(C(=O)Nc2cc(Cl)ccc2Cl)no1	i	0.16
CCCc1nc(N2CCOCC2)c(C#N)c2c1CCCC2	i	-0.3
CCC(Oc1ccccc1OC)C(=O)Nc1ccc2c(c1)n(C)c(=O)n2C (stereo not drawn)	i	2
CN(C)c1ccc(-c2noc(C3CCN(S(=O)(=O)c4cccc(Cl)c4)CC3)n2)cc1	i	-0.22
O=C(CN1C(=O)NC2(CCCC2)C1=O)Nc1cccc(Cl)c1	i	-0.81
Cc1csc(NC(=O)CSc2nnc(C)n2Cc2ccco2)n1	i	-1.1
CCOC(=O)CC(=O)CSc1nc2c(cc1C#N)CCCCCC2	i	-0.76
CC(C)N1CC(C(=O)Nc2ccc(S(=O)(=O)N3CCCCC3)cc2)CC1=O (stereo not drawn)	i	-0.22
Cc1nn(CC(=O)N2CCN(Cc3ccccc3)CC2)c(=O)c2ccccc12	i	-0.1
CCCCn1nnc(N(C(=O)c2cccs2)C(=O)c2cccs2)n1	i	-0.59
Cc1cc2n(n1)C(c1ccco1)Nc1ccccc1-2 (stereo not drawn)	i	-0.22
CCOc1ccc(C(=O)NC2CCN(S(=O)(=O)c3ccccc3)CC2)cc1	i	-0.22
Cc1cc(C(=O)CSc2nnc(NCc3ccccc3)s2)c(C)n1C	i	0.56
CCN1CCN(c2ccc(S(=O)(=O)N3CCCCC3)cc2NC(=O)c2cccc(Cl)c2)CC1	i	-0.2
Cc1ncc2c(n1)-c1cc(F)ccc1SC2	i	0.05
CC(=O)NS(=O)(=O)c1ccc(NC(=O)/C=C/c2ccccc2)cc1	i	1.3
COc1ccccc1NC(=O)CSC(N)=O	i	6.2
COc1cc(CN2CC(=O)N(c3cccc(Cl)c3C)C2=S)cc(OC)c1OC	i	-0.28
CCN(CC)S(=O)(=O)c1cccc(NC(=O)Nc2cccc(C(F)(F)F)c2)c1	i	2.7
Cc1ccc(S(=O)(=O)NC(C)C(=O)Nc2ccccc2C(=O)N2CCCC2)cc1 (stereo not drawn)	i	-0.07
O=C(Nc1ccccc1N1CCN(c2ccc(F)cc2)CC1)C12CC3CC(CC(C3)C1)C2	i	0.39
O=C(NC1CCCN(Cc2ccc(Cl)cc2)C1)c1c(F)cccc1F (stereo not drawn)	i	0.34
CCSc1nnc(-c2ccc(C)cc2)c2ccccc12	i	0.01
Cc1onc(-c2c(Cl)cccc2Cl)c1C(=O)N/N=C(\N)COc1ccc(Cl)cc1	i	-0.29
CCOc1ncccc1C(=O)Nc1ccccc1F	i	-0.26
CC1Cc2nc(SCC(=O)c3ccccc3)n(Cc3ccccc3)c(=O)c2S1 (stereo not drawn)	i	0.56
CC(C)c1ccc(/C=N/NC(=O)c2ccccc2Cl)cc1	i	-0.05
O=C(c1cccc(C(F)(F)F)c1)N1CCOC12CCN(c1ncc(C(F)(F)F)cc1Cl)CC2	i	1.2
COc1ccc(Cl)cc1NC(=O)CN(C)C(=O)C1CC(=O)N(Cc2ccc(C)cc2)C1 (stereo not drawn)	i	0.39
O=C1C2(CCC13COC(c1ccc(O)cc1)OC3)COC(c1ccc(O)cc1)OC2 (stereo not drawn)	i	1.9
COc1ccc(CNC(=O)c2coc(=O)c3ccccc23)c(OC)c1	i	-0.05
O=C(CCn1nc(-c2ccccc2)c2ccccc2c1=O)NN1CCOCC1	i	2.2
COc1ccc(OCCn2ccnc2)cc1	i	0.1
Cc1nn(C)c(C(=O)Nc2ccc(Br)cc2F)c1Br	i	0.32
Cc1ccc(-n2nnnc2-c2cnoc2-c2cccc(F)c2)cc1	i	0.52
COc1ccccc1NC(=O)Nc1nc(CC(=O)N2CCN(c3ccccc3F)CC2)cs1	i	0.52
CC(C)Oc1cccc(C(=O)C2CCCN(C(=O)c3ccsc3)C2)c1 (stereo not drawn)	i	0.01

Complete entries, looked up by structure. Order of screens: KCNQ2 inh | KCNQ2 inh baseline
Entry for COc1ccc(Cl)cc1NC(=O)CN(C)C(=O)C1CC(=O)N(Cc2ccc(C)cc2)C1 (stereo not drawn) = i | 0.39
Entry for O=C(CCn1nc(-c2ccccc2)c2ccccc2c1=O)NN1CCOCC1 = i | 2.2
Entry for Cc1nn(C)c(C(=O)Nc2ccc(Br)cc2F)c1Br = i | 0.32

(listing goes on)
SMILES	KCNQ2 inh	KCNQ2 inh baseline
CC(C)n1cnc2cc(NCc3nc4ccccc4n3C)ccc21	i	0.47
C#CCN(C)CC/C=C1\c2ccccc2CSc2ccccc21	-6*	1.9*
CC1(C)CC(=O)c2cnc(NC(=O)CSC(=S)N3CCCCC3)nc2C1	i	0.15
COc1cccc(C2Cc3ccccc3C(=O)O2)c1 (stereo not drawn)	i	0.34
COCCN1CCN(C(=O)C2CCC(=O)N(Cc3ccccc3OC)C2)CC1 (stereo not drawn)	i	-0.01
Cc1csc(NC(=O)CSc2nnc(-c3cc(C)on3)o2)n1	i	0.65
CCC(C)(C(=O)NC1CCCCC1)N(Cc1ccco1)C(=O)c1ccc2c(c1)OCO2 (stereo not drawn)	i	-1.4
O=S(=O)(NCc1cccc(C(F)(F)F)c1)NCc1ccccc1F	i	0.32
c1ccc(-c2cnc(CN3CCN(c4ccccc4)CC3)o2)cc1	i	0.39
CCOc1ccc(/C=C/C(=O)OCC(=O)c2ccccc2OC)cc1OC	i	0.31
CCc1ccc(N/C(SC)=C(/C#N)C(N)=O)cc1	i	0.75
N/C(=N\OC(=O)COc1ccc(Br)cc1)c1cccc([N+](=O)[O-])c1	i	-1.6
Cc1cc(=O)[nH]c(SCC(=O)Nc2ccc(S(=O)(=O)N3CCCCC3)cc2)n1	i	-0.11
OCC1(CCCc2ccccc2)CCN(Cc2ccc(F)cc2)CC1	i	-0.01
CN(CCCC(=O)Nc1nccs1)S(=O)(=O)c1ccc(Cl)cc1	i	1.2
COc1ccc(NS(=O)(=O)c2cc(NC(=O)CNC(=O)c3cccc(OC)c3)ccc2C)cc1	i	-0.5
CCCCc1nc2cc(C(=O)N3CCCCC3C(=O)OC)ccc2o1 (stereo not drawn)	i	-0.01
Cc1ccccc1NC(=O)C1(NC(=O)c2cccc(N3C(=O)CSC3c3ccccc3)c2)CCCCC1 (stereo not drawn)	i	1.1
CC(C)(C)c1ccc(OCCC(=O)NNC(=O)c2ccncc2)cc1	i	0.4
CCC(C)NC(=O)CSc1nc2ccccc2c(=O)n1CCCC(=O)NCC1CCCO1 (stereo not drawn)	i	1
C/C(=N\NC(=O)c1ccc(F)cc1)c1ccccn1	i	1.2
CSc1nc(N2CCOCC2)c2c3c(sc2n1)CCC3	i	-0.41
COc1ccc(N2CCN(CC(=O)c3c[nH]c4ccccc34)CC2)cc1	i	1.9
COc1ccc(N2CCN(C(=O)C3CCCN(S(=O)(=O)c4c(C)noc4C)C3)CC2)cc1 (stereo not drawn)	i	0.66
O=C(c1ccc(Oc2ccc(Cl)cc2)c([N+](=O)[O-])c1)N1CCCC1	i	0.23
CC(OC(=O)Cn1[nH]c(=O)c2ccccc2c1=O)C(=O)Nc1ccc(F)cc1Cl (stereo not drawn)	i	-0.82
CC(CCc1ccccc1)NC(=O)C(=O)NCCO (stereo not drawn)	i	0.43
CN1CCN(C(=O)c2ccccc2-c2ccccc2C(=O)O)CC1	i	-1
Nc1cc(S(=O)(=O)c2ccc(O)c(N)c2)ccc1O	i	-0.75
COc1ccc(NC(=O)/C(C#N)=C/c2ccc(Br)o2)cc1	i	1.8
Cc1ccc(Nc2nc(-c3ccc(S(=O)(=O)N4CCCC4)cc3)cs2)cc1C	i	-0.16
CCOC(=O)C1CCN(C(=O)NC23CC4CC(CC(C4)C2)C3)CC1	i	-0.81
O=C(O)c1ccccc1NCN1C(=O)C2CC=C(Cl)CC2C1=O (stereo not drawn)	i	1.4
O=C(NC1CCCCC1)C(Cc1ccccc1)NS(=O)(=O)c1cccs1 (stereo not drawn)	i	-0.01
Cc1ccc(N2CC(C(=O)Nc3nnc(C)s3)CC2=O)cc1 (stereo not drawn)	i	0.19
CC(=O)Nc1ccc(C(=O)N/C(=C/c2ccccc2)C(=O)N2CCCCC2)cc1	i	-1.4

A second format for four compounds above.
COc1cccc(C2Cc3ccccc3C(=O)O2)c1 (stereo not drawn)
  KCNQ2 inh = i
  KCNQ2 inh baseline = 0.34
COCCN1CCN(C(=O)C2CCC(=O)N(Cc3ccccc3OC)C2)CC1 (stereo not drawn)
  KCNQ2 inh = i
  KCNQ2 inh baseline = -0.01
Cc1csc(NC(=O)CSc2nnc(-c3cc(C)on3)o2)n1
  KCNQ2 inh = i
  KCNQ2 inh baseline = 0.65
CCC(C)(C(=O)NC1CCCCC1)N(Cc1ccco1)C(=O)c1ccc2c(c1)OCO2 (stereo not drawn)
  KCNQ2 inh = i
  KCNQ2 inh baseline = -1.4

Next part
SMILES	KCNQ2 inh	KCNQ2 inh baseline
Cc1ccc(N2C(=O)c3n[nH]c(C)c3C2c2cccnc2)cc1 (stereo not drawn)	i	0.98
CC1(C)Cc2cccc(OCC(=O)Nc3ccccc3N3CCOCC3)c2O1	i	-0.61
CCc1nnc(/N=C/c2c(O)n(-c3ccc(Cl)cn3)c(=O)c3ccccc23)s1	i	1.1
CCOC(=O)N1CCN(Cc2nc(N)nc(Nc3ccc(C)cc3C)n2)CC1	i	-0.46
COc1ccc(/C=C2\CN(Cc3ccccc3)C/C(=C\c3ccc(OC)c(O)c3)C2=O)cc1O	i	-1.7
CCC(=O)c1c(NC)cc(C)oc1=O	i	-1.1
COc1ccc(CNCCC(c2ccccc2)c2ccc(OC(C)C)cc2)cc1OC (stereo not drawn)	i	0.04
CCN(CCN(C)C)C(=O)Cn1ncc2c1-c1cc(C)ccc1OC2	i	-0.74
Cc1ccc(O)c(Sc2cc(C)ccc2O)c1	i	-0.96
CN(C)CCNc1ccc(-c2n[nH]c(=O)c3ccccc23)cc1[N+](=O)[O-]	i	-0.58
Cc1ccc(-n2c(SCC(=O)N3CC(=O)Nc4ccccc43)nc3ccccc3c2=O)cc1	i	0.05
Cn1cccc1/C=N/NC(=O)CNc1ccc2ccccc2c1	i	-0.03

As entered above.
Value of CCOC(=O)N1CCN(Cc2nc(N)nc(Nc3ccc(C)cc3C)n2)CC1 under KCNQ2 inh baseline: -0.46
Value of COc1ccc(/C=C2\CN(Cc3ccccc3)C/C(=C\c3ccc(OC)c(O)c3)C2=O)cc1O under KCNQ2 inh baseline: -1.7
Value of Cc1ccc(O)c(Sc2cc(C)ccc2O)c1 under KCNQ2 inh baseline: -0.96
Value of Cc1ccc(N2C(=O)c3n[nH]c(C)c3C2c2cccnc2)cc1 (stereo not drawn) under KCNQ2 inh baseline: 0.98
Value of CN(C)CCNc1ccc(-c2n[nH]c(=O)c3ccccc23)cc1[N+](=O)[O-] under KCNQ2 inh baseline: -0.58

The list goes on.
SMILES	KCNQ2 inh	KCNQ2 inh baseline
O=C(CN1C(=O)c2ccccc2C1=O)Nc1sc2c(c1C(=O)NCC1CCCO1)CCC2 (stereo not drawn)	i	0.16
COc1cc(-c2nc3cnccn3c2Nc2ccc3c(c2)OCCO3)ccc1O	i	1.5
O=C(NCc1ccco1)/C(=C\C=C\c1ccccc1)NC(=O)c1ccco1	i	1.1
Cc1ccc(/C(O)=C2\C(=O)C(=O)N(CC(C)O)C2c2cccc(F)c2)cc1 (stereo not drawn)	i	2.1
CC(C)(C)C(=O)O/N=C(\N)Cc1ccc(-c2csnn2)cc1	i	-0.67
OCCN(CC(O)Cn1ccc2ccccc21)CC(O)Cn1ccc2ccccc21 (stereo not drawn)	i	-0.28
CC1(C)CC(=O)C2=C(C1)c1c(ccc3ccccc13)NC2c1ccc(Br)o1 (stereo not drawn)	i	-0.62
Cc1cc(NS(=O)(=O)c2ccc(NC(=O)c3ccccc3C)cc2)no1	i	-0.75
COC(=O)[C@@H]1CCCN1Cc1c(C(=O)N2CCCCC2)nc2c(C)cccn12	i	-1.8
CCc1ccc(OCC(=O)N/N=C(\C)c2ccc(O)cc2O)cc1	i	-1.1
COc1ccc2nccc(/C=C/c3ccnc4ccc(OC)cc34)c2c1	i	0.35
COCCNC(=O)COC(=O)c1[nH]c(C)c(C(C)=O)c1C	i	-0.34
COc1ccc(C2N(c3cc(Cl)ccc3OC)C(=O)C3CCCN32)c(OC)c1 (stereo not drawn)	i	1.5
CCN(CC(=O)Nc1cccc(F)c1)CC(=O)Nc1ccccc1OC	i	0.01
CN1C/C(=C\c2ccc(N3CCOCC3)cc2)C(=O)/C(=C/c2ccc(N3CCOCC3)cc2)C1	i	-0.04
CCOCCn1c2ccccc2c2nc3ccccc3nc21	i	-0.42
O=C(Sc1nnnn1C1CCCCC1)c1cccs1	i	-0.3
COC(=O)c1cn(C(=O)c2ccc(OC)c(OC)c2)c2ccccc12	i	0.51
O=C(OCCN1C(=O)c2ccccc2C1=O)c1cccc(OC(F)F)c1	i	-1.7
Cc1ccc2c(C)c(C(=O)N(Cc3ccncc3)CC3CCCO3)oc2c1C (stereo not drawn)	i	1.5
Cc1ccc(Nc2ccc(-n3ccnc3)nn2)cc1C	i	0.93
Cn1nnc2c[n+](CC(=O)c3ccc4ccccc4c3)cc(Br)c21	i	-0.54
CC(C)OC(=O)CC(=O)CSc1nc2c(cc1C#N)CCCCCC2	i	-0.22

From PubChem BioAssay
